Source: PubChem BioAssay (ICCB-Longwood Screening Facility, Harvard Medical School)
Sa growth 42C: S. aureus growth inhibition at 42 and 30 °C, primary screen, LtaS inhibitor project, RN4220, two temperatures | OD600, 20 h, 42 °C; active compounds read low | relative growth, % (concentration not given with the values) | 170,000 tested, 0.53% active | AID 720641, 2013;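 active = growth at 42 °C up to 50% and 20 or more points under that at 30 °C, or under 10% at both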;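 note: 300 nL library stock went into each well; scaled to the means of positive and negative controls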
GIV Gai3 FP: inhibitors of GIV peptide binding to Galpha-i3, primary screen, biochemical, fluorescence polarization, FITC-GIV GBA peptide, rat Galphai3. 210,000 tested, 0.42% active. percent of control (FP), % (no concentration beside the values). 90 min; active compounds read low; scaled: aluminum fluoride 0%, vehicle 100%;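 active = replicate mean at 85% of control or lower, very high polarization wells dropped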;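 note: wells of about 15 µL received 100 nL stock; the first replicate is given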
Target sequence (P08753 whole entry, looked up): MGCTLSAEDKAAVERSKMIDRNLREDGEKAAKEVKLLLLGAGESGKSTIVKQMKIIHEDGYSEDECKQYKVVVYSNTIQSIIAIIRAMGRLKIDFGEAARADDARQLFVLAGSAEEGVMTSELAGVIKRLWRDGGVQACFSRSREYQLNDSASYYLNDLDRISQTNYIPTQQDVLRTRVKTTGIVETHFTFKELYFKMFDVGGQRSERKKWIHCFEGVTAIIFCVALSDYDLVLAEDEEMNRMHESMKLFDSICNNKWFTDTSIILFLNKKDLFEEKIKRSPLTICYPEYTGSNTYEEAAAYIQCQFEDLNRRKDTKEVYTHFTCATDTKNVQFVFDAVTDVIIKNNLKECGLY
HCMV UL50-53 inh: inhibitors of HCMV UL50-UL53 interaction, biochemical, HTRF; HCMV UL50-UL53 nuclear egress complex (human cytomegalovirus); normalized percent inhibition; 190,000 tested, 0.15% active; inhibition, % (no concentration beside the values);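 active = both replicates at 50% or more, plus weaker picks with an unusually low signal ratio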;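 note: stock transfer was 100 nL into about 20 µL; 0% = negative control wells and 100% = wells with untagged competitor protein; inactives centre near -12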
Sa growth 42C second temp: further read-out of Sa growth 42C, marked with its call; relative growth, %; measured here: growth at 30 °C;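 optical density after 20 h as mean of two plates; 100% = untreated growth and lower means inhibition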
Numbers without * were called inactive; x = not tested or not shown; & = joins results of further samples.

SMILES	Sa growth 42C	Sa growth 42C second temp	GIV Gai3 FP	HCMV UL50-53 inh
CCc1ccc(NC2=NS(=O)(=O)c3ccccc32)cc1	110.4	101.7	106.3	-9.4
CCOC(=O)C1=C(C)NC2=C(C(=O)C(C(=O)OCC)C(c3ccco3)C2)C1c1ccc2c(c1)OCO2 (stereo not given)	98.0	92.5	108.3	4.1
CC(C)(C)C(=O)/C=C/Nc1ccccc1C(N)=O	108.3	98.0	105.5	-22.5
CCC(=O)Nc1cc(-c2nc3cccnc3s2)ccc1C	94.2	87.2	105.6	x
O=C1c2ccccc2CCc2sccc21	98.2	91.6	103.6	-8.6
CCOc1cc(CNS(=O)(=O)c2ccc3c(c2)CCCC(=O)N3)cc(OCC)c1OCC	106.1	99.0	103.5	-7.2
CC(=O)Nc1ccc(C(=O)CN2C(=O)NC(C)(c3ccc4c(c3)OCCO4)C2=O)c(F)c1 (stereo not given)	88.1	92.8	x	-25.9
COc1cccc(CN(C)C(=O)COC(=O)c2cc(C)cc(C)c2)c1	135.5	108.0	x	-13.7
O=C(C1CC1)N1CCc2cc(Br)cc(S(=O)(=O)Nc3ccc(F)c(F)c3)c21	115.8	88.4	95.9	7.5
CC(=O)c1ccc(NC(=O)Cn2c(-n3nc(C)cc3C)nc(C)c(C)c2=O)cc1	119.2	85.3	98.8	x
Cc1cccc(N(C)c2nc3ccc(Cl)cc3n3cnnc23)c1	116.3	97.3	112.8	11.4
COc1cc(-c2nnc(COC(=O)CSc3ccc4ccccc4c3)o2)cc(OC)c1OC	97.3	88.2	x	-46.4
O=C(Cc1n[nH]c(=O)c2ccccc12)OCCOc1cccc(Cl)c1	83.9	73.5	x	-30.8
Cc1cc(C)cc(NC(=O)Cn2nnc(-c3nc(-c4ccncc4)no3)c2N)c1	105.7	94.2	109.4	x
COc1cccc2cc(C(=O)N3CCN(c4cc(C)ccc4C)CC3)c(=O)oc12	98.6	87.6	106.8	-14.2
O=C(Cn1c2c(c(-c3ccccc3Cl)cc1=O)CCC2)NC1CCCC1	89.2	83.5	100.2&108.3	-3.4
N#CC1=C(N)OC2=C(CCCC2=O)C1c1ccccc1C(F)(F)F (stereo not given)	100.9	111.1	x	-11.2
COC(=O)C(C)n1nnc2sc(-c3ccccc3)cc2c1=O (stereo not given)	87.6	81.0	127.5	-49.6
COc1ccc(Cl)cc1NC(=O)c1c(NCc2ccc(C)o2)sc2c1CCCCC2	108.0	80.2	128.9	x
CC(C)CCNC(=O)c1ccc2c(c1)nc1n2CCCCC1	104.4	94.0	101.8	x
Cn1c(SCc2ccccc2Cl)nnc1C(O)C(O)c1nnc(SCc2ccccc2Cl)n1C (stereo not given)	99.8	100.5	104.2	-3.0
CN(C(=O)c1cccc(S(=O)(=O)N(C)C)c1)c1ccccc1	133.6	103.0	106.3	-5.5
CCOC(=O)C1CCN(c2ncnc3c2c(-c2ccccc2)cn3-c2ccc(Cl)cc2)CC1	106.4	92.5	105.4	x
CCc1ccc(NC(=O)NC2CCN(C(C)C)CC2)cc1	108.5	102.9	99.2	-19.2
c1ccc(CN(Cc2ccccc2)c2ncnc3nc[nH]c23)cc1	x	x	108.7	2.1&-10.2
COc1cc(=O)oc2ccccc12	110.5	76.2	99.6	-9.7
CC1(C)OC(C)(C)/C(=C\c2ccc(F)cc2)C1=O	93.5	88.9	93.0	-1.5
O=C(Nc1ccccc1)N1CCN(C(=O)c2nsc3ccccc23)CC1	70.7	86.5	99.8&108.9	x
NC(=O)c1c(/N=C/C(Br)=C/c2ccccc2)sc2c1CCC2	91.6	53.7	x	-23.5
CCOc1ccc(-c2cc(NC(=O)Cn3ncc4c(=O)oc5ccc(C)cc5c43)on2)cc1	102.8	91.6	105.9&101.5	-12.9&7.0
Cc1ccc(OCC(=O)Nc2ccc3nc(Nc4cccc(Cl)c4)cc(C)c3c2)cc1	90.6	91.5	108.5	0.2
COc1cccc(-c2nn3c(=O)cc(CN4CCN(S(=O)(=O)c5ccc(C)cc5)CC4)nc3s2)c1	101.4	81.4	104.8	x
CCC12CN3CC(CC)(CN(C1)C3c1c[nH]c3ccccc13)C2=O (stereo not given)	92.6	99.4	97.3	x
CS(=O)(=O)c1cccc(S(=O)(=O)NCc2ccco2)c1	106.6	90.4	99.8	-10.9
COc1nc(-c2ccccc2)cc(-c2ccc(Cl)cc2)c1C#N	x	x	107.4	-10.2
OC(c1ccccc1)(c1ccccc1)C1CCCN1Cc1ccccc1 (stereo not given)	102.7	93.3	x	0.7
CCN(CC)C(=O)c1cc(-c2ccco2)on1	108.3	83.6	97.8	-3.4
Cc1ccnc(SCC(=O)NC(c2ccccc2)c2ccccc2)n1	117.0	99.0	x	-19.4
O=C(c1ccc(N2CCOCC2)nc1)N1CCCCCC1	108.7	89.5	106.8	-27.9
O=c1oc(-c2cccc(Cl)c2)nc2c1cnn2-c1ccccc1	92.9	114.2	x	-1.6

Molecules shown so far containing a Cl atom, in the order listed:
SMILES	Sa growth 42C	Sa growth 42C second temp	GIV Gai3 FP	HCMV UL50-53 inh
Cc1cccc(N(C)c2nc3ccc(Cl)cc3n3cnnc23)c1	116.3	97.3	112.8	11.4
O=C(Cc1n[nH]c(=O)c2ccccc12)OCCOc1cccc(Cl)c1	83.9	73.5	x	-30.8
O=C(Cn1c2c(c(-c3ccccc3Cl)cc1=O)CCC2)NC1CCCC1	89.2	83.5	100.2&108.3	-3.4
COc1ccc(Cl)cc1NC(=O)c1c(NCc2ccc(C)o2)sc2c1CCCCC2	108.0	80.2	128.9	x
Cn1c(SCc2ccccc2Cl)nnc1C(O)C(O)c1nnc(SCc2ccccc2Cl)n1C (stereo not given)	99.8	100.5	104.2	-3.0
CCOC(=O)C1CCN(c2ncnc3c2c(-c2ccccc2)cn3-c2ccc(Cl)cc2)CC1	106.4	92.5	105.4	x
Cc1ccc(OCC(=O)Nc2ccc3nc(Nc4cccc(Cl)c4)cc(C)c3c2)cc1	90.6	91.5	108.5	0.2
COc1nc(-c2ccccc2)cc(-c2ccc(Cl)cc2)c1C#N	x	x	107.4	-10.2
O=c1oc(-c2cccc(Cl)c2)nc2c1cnn2-c1ccccc1	92.9	114.2	x	-1.6

Next section
SMILES	Sa growth 42C	Sa growth 42C second temp	GIV Gai3 FP	HCMV UL50-53 inh
Cc1ccc(-c2n[nH]c(=O)c3ccccc23)cc1S(=O)(=O)N(C)C1CCCCC1	114.9	81.0	104.0	5.1
CCOc1ccc(CCNC(=O)Cc2ncn[nH]2)cc1OCC	94.6	87.0	x	-14.6
O=C(O)CN1CC(=O)Oc2ccccc21	81.9	78.2	108.4	-33.2
CCCn1c2ccccc2c2cnn(CC(=O)N3CCCc4ccccc43)c(=O)c21	96.7	75.3	108.8	-4.0
CCn1nnc(NCc2ccc(-c3cc(Cl)cc(Cl)c3)o2)n1	x	x	100.0	-1.1
Cc1ccccc1OCC(O)Cn1c(C2CC2)nc2ccccc21 (stereo not given)	x	x	102.3	-13.9
COc1ccc(N=C2CCCN2CC(N)=O)cc1	91.0	81.7	99.3	x
CCCCN1Cc2c(n(CC(=O)OCC)c3cc(-c4ccccc4)nn3c2=O)C1=O	92.7	83.6	103.1	-25.3
COc1ccc(C(=O)CSc2nccn2C)cc1	103.5	92.5	x	-0.9
COc1cc(C=C2C(=O)NC(=O)NC2=O)cc(Cl)c1OCc1ccccc1Cl	x	x	107.9	3.5
CN(C)CCN(Cc1ccccc1)Cc1ccc(O)cc1	110.8	106.7	93.7	-17.0
COc1ccc(NC(=O)CSc2nncn3c2cc2oc(C)cc23)cc1OC	74.3	77.3	110.3	x
Cc1c(C(=O)NCCc2ccccc2)oc2ccccc12	97.9	94.8	99.5	-4.8
COc1ccc2c(c1)c1nnc(-c3ccccc3)c-1cn2Cc1ccccc1	x	x	99.2	-29.5
Cc1ccc(C)c(Nc2nn3c(=O)c4ccc(C(=O)NCCc5ccccc5)cc4nc3s2)c1	125.4	89.9	99.9	x
CCOc1ccc(-n2nc3ccc(NC(=O)c4ccc5c(c4)OCCO5)cc3n2)cc1	x	x	95.1	4.8
COc1ccc(C)cc1NC(=O)C1CCN(S(=O)(=O)c2ccc3[nH]c(=O)oc3c2)CC1	72.1	93.0	100.8	x
N#Cc1oc2ccccc2c1N	86.8	94.3	x	-36.5
Cc1ccc(F)cc1NC(=O)Cn1c(=O)nc(-c2ccccc2)c2ccccc21	x	x	104.2	-71.5
COC(=O)c1c(N)sc2c1C(C(=O)OC)CC2 (stereo not given)	79.5	89.0	x	-5.6
O=c1[nH]c(SCc2ccc(C(F)(F)F)cc2)nc2c1cnn2-c1ccccc1	110.2	89.8	100.8	x
C/C(=N\NC(N)=S)c1cccnc1	101.9	99.6	105.7	-8.5
Cc1ccc(CNC(=O)CCc2c(C)nc3nc(CNC(=O)OC(C)(C)C)nn3c2C)cc1	99.1	88.6	94.4	0.6
N#CCSc1nc2ccccc2c(=O)n1CCCC(=O)NCc1ccco1	94.8	74.3	101.6	x
CCCN(CCC)C1=CC(=O)C(C(C)(C)C)=CC1=O	67.1	34.3	97.3	2.1
Cc1ccc(CNC(=O)c2ccc3c(c2)NC(=O)CS3)n1C	85.5	95.0	x	-39.9
O=C(CSc1ccccc1)OCc1nnc(C2COc3ccccc3O2)o1 (stereo not given)	90.2	90.1	x	-17.8
COc1ccc(Cn2c(CNS(=O)(=O)c3ccc(C)c(C)c3)nc3cccnc32)cc1	72.5	94.3	109.5	x
CN(C)c1ccc(CNC(=O)CN2C(=O)CSc3ccc(S(=O)(=O)N4CCCC4)cc32)cc1	110.4	81.1	108.1	x
O=C(N/N=C/c1ccc(O)c(O)c1O)c1cccc(S(=O)(=O)Nc2ccccc2Cl)c1	52.1	59.8	x	-27.3
COc1cccc(CNC(=O)CN2C(=O)CCc3cc(S(=O)(=O)N4CCCC4)ccc32)c1	x	x	106.1	-11.4
Cc1sc(NC(=O)C2CCCCC2)c(C(N)=O)c1C	112.3	106.5	101.4	-6.6
O=C1NCC(COc2ccc3ccccc3c2)O1 (stereo not given)	116.0	82.3	101.8	-11.5
CCOC(=O)c1cc2ccsc2n1CC(=O)N(CC)c1ccccc1	x	x	102.2	-34.9
O=C(c1cc2ccccc2[nH]1)N1CCN(c2ccc(=O)n(-c3ccccc3)n2)CC1	x	x	103.8	-67.0
Cc1[nH]c(C)c(S(=O)(=O)NC2CCN(Cc3ccccc3)CC2)c1C(=O)N1CCCC1	x	x	102.3	-22.1
CC(C)N1C(=O)CCC1C(=O)O (stereo not given)	119.8	91.0	101.6	-5.1
COc1ccc(N2CCN(Cc3nnnn3C3CCCCC3)CC2)cc1	107.8	81.2	98.6	-24.3
Cc1n[nH]c(C)c1Sc1nccc(-c2cccnc2)n1	102.8	84.8	100.0	-34.1
Cc1c(C)n(Cc2ccncc2)c2ncn3nc(-c4ccc(C(C)(C)C)cc4)nc3c12	x	x	113.1	-17.5
CCc1cccc(C)c1NC(=O)CCCn1c(=O)c2cccn2c2cccnc21	109.2	86.5	101.1	x
O=S(=O)(NC1=NCCCCC1)c1ccc(F)cc1	69.7	85.9	x	-12.7
CCOc1ccc(C(=O)Nc2ccc3c(c2)N(C(C)=O)CCC3)cc1OCC	83.0	92.7	108.3	x
O=C(O)C1CCC(=O)N1Cc1ccc(F)cc1 (stereo not given)	94.1	88.9	100.8	-9.3
CC(C)NC(=S)NC(=O)c1cccnc1	111.6	90.0	102.7	-5.1
CCOc1ccc(-c2nc(CN)c(C)o2)cc1	x	x	100.4	-18.6
Cc1ccc(NC(=O)CSc2nc(=O)n(Cc3ccncc3)c3c2CCC3)cc1Cl	116.8	93.2	105.2	x
Nc1ccc(I)cc1C(=O)O	87.0	93.5	x	5.7
Cn1c(=O)c2c(-c3ccccc3Br)n(CC(N)=O)cc2n(C)c1=O	108.5	92.8	107.7	4.9
Cc1cc(C)c(NC(=O)CN2C(=O)CCn3nc(-c4cccn4C)cc32)c(C)c1	88.0	77.8	106.7&102.9	-15.0
O=C(COC(=O)/C=C/c1ccco1)Nc1cc(-c2ccccc2)nn1-c1ccccc1	101.4	69.1	x	-40.9
CCOc1ccc(-c2cc(CCCC(=O)NCCc3ccc(Cl)cc3)no2)cc1	111.0	84.0	99.1	-6.9
Cc1ccc(CCNS(=O)(=O)c2c(C)nc3sccn3c2=O)cc1	98.8	92.2	108.5	-2.7
O=C1C2=C(Nc3ccccc3SC2c2ccc(Br)cc2)c2ccccc21 (stereo not given)	x	x	100.7	3.9
O=C(CSc1ccccc1)NCc1cccs1	114.2	84.5	101.1	x
Nc1c(C(=O)Nc2cc(C(F)(F)F)ccc2Cl)sc2nc3c(cc12)CCC3	x	x	97.6	-13.1
O=C(COc1ccc(Cl)cc1)Nc1ccc(O)c(-c2nc3ccccc3s2)c1	101.0	82.0	103.4	x
COC(=O)c1ccc(N(C=O)C(=S)SC)cc1	107.0	99.8	x	-12.8
Cc1ccc(CNc2c(C)c(C)nc3nncn23)cc1	106.8	87.8	99.9	-37.1
CCOC(=O)c1ccccc1NC(=O)N1CCN2CCCCC2C1 (stereo not given)	88.9	89.5	97.0	x
COc1cccc(CNS(=O)(=O)c2cc(Br)cc3c2N(C(C)=O)C(C)C3)c1 (stereo not given)	106.9	89.3	101.6	6.9
CN(CCc1noc(COc2ccccc2F)n1)S(=O)(=O)c1cc(F)ccc1F	x	x	101.7	-22.8
